CtBP-E1A blk: CtBP/E1A binding inhibition; AlphaScreen GST-E1A/His-CtBP binding, 1536-well; stronger effect = lower value; control for the full effect not named in the record; activity change, % (test concentration not listed); hit rate 0.49% among 340,000; in the data active means activity change below about -65%; inconclusive means about -30% to -65%; inactive means above about -30%; also: % is scaled to controls: 0 for no effect and ±100 for the full control effect; compound concentration not given in the record
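In 5 uL wells, 23 nL compound meets equimolar GST-E1A and His-CtBP (5X stock 125 nM each) for 2 h, 37 °C. Beads (5X, 50 ug/mL) then 1 h, 37 °C, dark.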
Six1-Eya2 blk: Six1/Eya2 interaction inhibition; Q15475+O00167; AlphaScreen GST-Six1/His-Eya2 binding, biochemical; stronger effect = lower value; control for the full effect not named in the record; activity change, % (no concentration beside the values); hit rate 0.56% among 360,000; AID 651725; in the data active = activity change below about -65%; inconclusive = about -30% to -65%; inactive = above about -30%; also: % is scaled to controls: 0 for no effect and ±100 for the full control effect; compound concentration not given in the record
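AlphaScreen with GST-Six1 and His-Eya2 (5X mix: 250 nM and 500 nM), glutathione donor and nickel acceptor beads; buffer 50 mM Tris pH 8.0, 300 mM NaCl, 1 mM TCEP; 1 h at 37 C in the dark.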
TRPML1 ag: human mucolipin-1 channel agonism. TRPML1-expressing cells, Ca2+ dye fluorescence, FDSS; host cell line not named in the record; reference of the full effect not given here. activation, % (test concentration not listed). hit rate 0.12% among 410,000. AID 624414; in the data active = activation above about 50%; inconclusive = about 30% to 50%; inactive = below about 30%; also: 0% is about no effect; the text of the record puts the active cut at 80%
Target sequence (Q9GZU1 whole entry, looked up): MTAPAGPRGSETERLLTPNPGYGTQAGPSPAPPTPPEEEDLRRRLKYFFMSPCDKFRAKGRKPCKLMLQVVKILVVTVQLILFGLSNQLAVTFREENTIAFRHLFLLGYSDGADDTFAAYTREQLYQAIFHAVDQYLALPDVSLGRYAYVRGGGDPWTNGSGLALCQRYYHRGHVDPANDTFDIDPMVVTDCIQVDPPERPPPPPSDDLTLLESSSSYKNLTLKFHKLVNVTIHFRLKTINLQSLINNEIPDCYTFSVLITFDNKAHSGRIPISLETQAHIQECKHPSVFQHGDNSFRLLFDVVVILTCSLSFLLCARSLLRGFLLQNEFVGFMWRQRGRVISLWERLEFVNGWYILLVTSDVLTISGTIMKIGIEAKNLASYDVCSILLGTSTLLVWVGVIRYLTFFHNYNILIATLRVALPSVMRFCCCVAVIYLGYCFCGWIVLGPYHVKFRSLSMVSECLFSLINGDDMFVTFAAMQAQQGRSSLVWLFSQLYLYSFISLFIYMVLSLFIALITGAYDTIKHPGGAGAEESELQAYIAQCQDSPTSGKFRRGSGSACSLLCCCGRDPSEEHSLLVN
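In this qHTS format, compounds were pin-transferred onto Ca8-dye-loaded TRPML1-DL cells induced with Tet overnight, and intracellular Ca2+ fluorescence was recorded kinetically for 110 s after a 10 s baseline. A subsequent 4uM final 54-4 (EC80) addition followed by a second 110 s read served as the antagonist phase.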
D2 ag: agonists of human D2 dopamine receptor (beta-arrestin); AID 624465; P14416; activation, % (concentration not given with the values); hit rate 0.084% among 360,000; DiscoveRx PathHunter D2 beta-arrestin, luminescence, 90 min; 100% = 57 uM dopamine signal; in the data active = activation above about 40%; inconclusive = about 15% to 40%; inactive = below about 15%; also: compound concentration not given in the record; the text of the record calls up to 30% inactive
Target sequence (P14416 whole entry, looked up): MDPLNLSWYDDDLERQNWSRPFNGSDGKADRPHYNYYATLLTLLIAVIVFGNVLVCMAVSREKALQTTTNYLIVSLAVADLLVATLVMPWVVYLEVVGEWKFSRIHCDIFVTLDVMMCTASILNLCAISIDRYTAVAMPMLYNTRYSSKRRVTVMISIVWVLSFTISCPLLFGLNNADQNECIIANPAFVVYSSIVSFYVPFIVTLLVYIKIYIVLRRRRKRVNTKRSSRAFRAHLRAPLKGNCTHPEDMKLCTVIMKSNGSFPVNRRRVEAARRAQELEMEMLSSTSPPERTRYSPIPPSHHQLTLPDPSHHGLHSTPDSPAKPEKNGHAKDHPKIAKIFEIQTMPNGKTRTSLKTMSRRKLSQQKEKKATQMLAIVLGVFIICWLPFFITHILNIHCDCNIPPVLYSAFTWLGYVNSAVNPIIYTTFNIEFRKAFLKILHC
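Agonist mode: compounds alone added to overnight-plated D2 PathHunter cells for 90 min at 37 C, with 57 uM final dopamine (EC100) defining full response. Beta-arrestin recruitment detected by chemiluminescent reagent, read after 1 h at ambient temperature.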
D2 PAM: potentiates the human D2 dopamine receptor allosterically | DiscoveRx D2 beta-arrestin cells, luminescence, 90 min; 100% = 57 uM dopamine signal | potentiation, % (concentration not given with the values) | hit rate 0.23% among 360,000 | P14416 | AID 624464; active = potentiation of 50% or more; inconclusive = 30% to 50%; inactive = 30% or less;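 also: compound concentration not given in the record; tested on top of an EC20 dose of dopamine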
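PathHunter D2 cells, attached overnight at 37 deg C, received compound in DMSO plus dopamine at EC20 (50 nM final) for 90 min at 37 deg C. Beta-arrestin recruitment was read as luminescence after 1 h with detection reagent at ambient temperature.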
PINK1 expr mod: PINK1 expression modulation. PINK1 immunofluorescence, high-content cytometry, 24 h. Potency, µM (titrated, usually from 76.6 µM), inactives show at the highest dose activation (PINK1 increase), actives largely listed as activators. AID 624263. hit rate 0.2% among 410,000; active = well fitted activation curve with a large enough effect; inconclusive = small, poorly fitted or top-dose-only effect; inactive = flat fitted curve, though single readings scatter; cell line not stated here;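 also: potency is read from the fitted curve at half-maximal effect; % of control where 0% means no effect; nearly all actives have a fitted effect of over 65% in size; a mitochondrial uncoupler was the plate control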
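PINK1 protein, normally rapidly degraded, was detected by immunofluorescence after 24 hour compound treatment of a stable cell line. Titration data (5 concentrations) came from laser-scanning cytometry, with CCCP-treated wells as controls.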
Active calls of the source: *; ? = inconclusive; . = no result given; & = joins results of further samples; [ ] = remark or other dose.

SMILES | CtBP-E1A blk | Six1-Eya2 blk | TRPML1 ag | D2 ag | D2 PAM | PINK1 expr mod
CCn1cc(C(=O)O)c(=O)c2cc(F)c(N3CCN(C(=S)NC(=O)c4c(OC)cccc4OC)CC3)cc21 | -0.2 | -5.9 | -0.8 | 0.8 | 2.0 | ?
Cc1ccc(C)c(Oc2coc3cc(OC(=O)c4cccs4)ccc3c2=O)c1 | -1.9 | -12.2 | 0.0 | -3.9 | -3.8 | -0.9%
COC(=O)CSc1ccc(C#N)c(SCC(=O)OC)c1 | -1.6 | 6.0 | -0.6 | -4.0 | 8.3 | 5.3%
CCn1c(SCC(=O)Nc2nnc(C)s2)nnc1-c1ccco1 | 0.7 | -1.6 | 1.1 | -1.1 | -4.5 | 8.9%[38.3 µM]
NC(=O)[C@@H]1CCOc2c(I)cc([N+](=O)[O-])cc2C(=O)N[C@@H](CO)C(=O)NCC(=O)N1 | -1.6 | -20.0 | -0.8 | -3.2 | -4.6 | 0.2%
COc1ccc2cc3cc(C(=O)Nc4cc(OC)c(OC)c(OC)c4)oc3nc2c1 | -1.5 | -0.6 | 0.2 | 0.0 | 27.9 | 3.0%
CCc1nc2c(=O)[nH]cnc2o1 | 2.1 | -0.4 | -0.2 | -5.9 | -5.0 | -0.5%
O=C(CS(=O)c1ccccc1[N+](=O)[O-])Oc1ccc(Br)cc1 (configuration not stated) | 5.2 | -2.9 | 0.7 | -2.5 | -5.0 | 1.9%
COc1ccccc1CNC(=O)C1CCC(CNc2c(N3CCC(C)CC3)c(=O)c2=O)CC1 (configuration not stated) | . | -1.5 | -1.1 | -4.4 | -15.7 | 1.1%
O=C(NC1CC1)C1=C[C@@H](c2c[nH]c3ccccc23)C[C@@H](OCCCCO)O1 | -15.6 | -3.8 | 0.4 | 0.1 | -7.3 | -1.8%
CC(OC(=O)[C@@H]1CCCN1C(=O)c1cccs1)C(=O)Nc1cccc([N+](=O)[O-])c1 (some centres not stated) | -3.7 | -11.9 | 0.9 | -1.7 | -10.2 | -0.5%
COc1cccc(CNC(=O)COC(=O)/C(C#N)=C/c2ccc(N(C)C)cc2)c1 | 9.4 | 6.2 | 6.5 | -8.3 | -1.2 | 3.2%
N/C(Cn1nnc(-c2ccccc2)n1)=N\O | -21.1 | 4.0 | 0.0 | -1.8 | -9.2 | 1.0%
O=C(CSc1nncc2ccccc12)Nc1ccccc1 | -11.7 | -3.2 | 1.8 | 1.6 | -3.3 | -3.3%
Cc1ccc2[nH]c(C)c(CCNC(=O)C3CCCCC3C(=O)OCC(F)(F)F)c2c1 (configuration not stated) | -8.1 | -15.3 | 0.3 | -2.1 | -7.9 | 0.7%
CN(C(=O)CN1CCN(c2ccccc2F)CC1)C1CCCc2ccccc21 (configuration not stated) | -1.9 | -9.7 | -0.6 | -3.6 | -11.6 | 4.4%
COC(=O)c1cc(C(=O)Nc2nnc(CC(C)(C)C)s2)cc([N+](=O)[O-])c1 | 1.3 | -4.3 | -0.2 | 1.5 | -16.2 | 0.2%
Cc1[nH]c2nc3ccccc3n2c(=O)c1CCC(C)C | -1.2 | 15.6 | 0.3 | -1.4 | -6.4 | 0.9%
CCOC(=O)CCCCC(=O)c1[nH]c(=O)[nH]c1Cn1cnc2ccccc21 | -22.2 | 3.2 | 1.7 | -0.8 | -8.7 | -1.4%[38.3 µM]
Nc1nonc1-c1nc2ccccc2n1CC(=O)NC1CCCC1 | 4.3 | 0.1 | 0.2 | -3.4 | -4.2 | 2.0%
Cc1ccc(N2C(=S)NC3c4ccccc4OC2(C)C3C(=O)N(C)C)cc1 (configuration not stated) | -6.5 | 3.5 | -0.9 | -3.8 | -10.4 | -0.6%
CCC(=O)c1ccc(OCC(=O)OCC(=O)N2CCN(c3ccc(OC)cc3)CC2)cc1 | -23.9 | 0.8 | -1.3 | -0.4 | 11.2 | 1.8%
CC(C)C1C(=O)NC(=S)N1S(=O)(=O)c1ccc(C(C)(C)C)cc1 (configuration not stated) | 5.3 | 15.2 | 0.4 | 5.2 | 1.5 | -2.4%
O=S(=O)(NC(=NC1CCCC1)C(F)(F)F)c1ccccc1 | -5.3 | -10.3 | -0.8 | -0.7 | -6.8 | 1.3%
O=C(COc1ccc(F)cc1)N1CCCCCCC1 | 4.2 | -1.9 | -1.0 | 4.7 | -3.6 | -0.7%
New compounds follow
SMILES | CtBP-E1A blk | Six1-Eya2 blk | TRPML1 ag | D2 ag | D2 PAM | PINK1 expr mod
O=C(Cc1ccc(NC(=O)C2CCCN(C(=O)CCc3ccccc3)C2)cc1)Nc1cccc(C(=O)N2CCCC2)c1 (configuration not stated) | -4.6 | 0.6 | 3.8 | 3.2 | 14.7 | 0.6%
COc1ccccc1/C=C1/C(=O)N(c2ccc([N+](=O)[O-])cc2)N=C1C | . | -0.5 | . | -9.6 | -6.1 | 3.2%
Cc1sc2nc(SCC(=O)N3CCCCC3)[nH]c(=O)c2c1C | -2.0 | -3.3 | 0.9 | -4.0 | -15.5 | 1.2%
CC(C)C[C@H](NC(=O)c1nc[nH]c1C(=O)NCCCCCN)C(=O)OCc1ccccc1 | -5.6 | -3.4 | -0.4 | -2.3 | -12.2 | -0.2%
Cc1ccccc1N1CC(C(=O)Nc2ccc(S(=O)(=O)N3CCOCC3)cc2)CC1=O (configuration not stated) | 3.1 | 4.6 | 0.8 | -3.8 | -5.0 | 0.2%
COc1cc(Cl)c(S(=O)(=O)n2cnc(C)c2)cc1Cl | 9.7 | -2.8 | -0.1 | -0.9 | -4.2 | 1.1%[38.3 µM]
O=C(c1sc2cc([N+](=O)[O-])ccc2c1Cl)N1CCOCC1 | -6.3 | -0.3 | 2.1 | -2.0 | 3.7 | -0.9%
CC(=O)Nc1ccc(S(=O)(=O)N2CCc3ccccc3C2CC(=O)O)cc1 (configuration not stated) | -10.0 | 5.7 | -1.1 | -4.4 | -9.8 | 4.8%
CSc1ccc(NC(=O)N2CCC(C(=O)c3ccc(F)cc3)CC2)cc1 | -20.8 | -0.1 | 1.6 | 0.9 | -6.9 | -0.1%
C=CCOC(=O)c1c(C)nc2cc3c(cc2c1C)OCO3 | 18.5 | -2.0 | -0.6 | -0.5 | 0.6 | 0.1%
COc1cccc(CN2C(=O)CCC2(C)C(=O)NC2CCCCCC2)c1 (configuration not stated) | 8.9 | 6.7 | 0.0 | -1.2 | 5.6 | -0.8%
O=C1C(=O)c2c(ccc3ccccc23)-c2ccccc21 | 14.2 | 7.0 | 0.2 | ? | 58.8* | 0.2%
CC[C@@H]1CC2=C(C(=O)OC(C)(C)O2)[C@@H](CC)O1 | 7.2 | 3.7 | -0.5 | . | . | 1.1%
COc1ccc(N(CC(=O)Nc2ccc(F)cc2)S(=O)(=O)c2ccccc2[N+](=O)[O-])c(OC)c1 | -5.4 | -1.9 | 0.1 | -3.1 | -0.3 | -0.2%
Nc1nc2ccc(Oc3ccccc3)cc2s1 | 1.5 | -15.6 | 1.3 | -5.0 | -20.5 | 3.1%
COc1ccc([C@H]2/C=C\CN(S(=O)(=O)c3ccc4ccccc4c3)[C@@H](C)C(=O)N2Cc2ccc(F)cc2)cc1 | . | -10.7 | -0.3 | -2.5 | -9.0 | 3.1%
COC(=O)c1c(N)sc2c1CC(C)(C)OC2 | -15.4 | -13.8 | 0.8 | 6.5 | -24.6 | 0.5%
COc1ccc(/C=N/n2c(=S)n(C)c3ccccc32)cc1OC | -18.0 | -20.1 | 2.1 | 3.3 | 8.3 | 1.5%[38.3 µM]
CCOC(=O)NC(=O)C(=CNc1ccc(C)cc1)C(=O)NC(=O)OCC | . | 2.7 | 1.2 | -4.7 | -3.9 | -0.8%
COc1ccc(-n2ncc3c2CC(C)(C)CC3NC(=O)CCn2cncn2)cc1 (configuration not stated) | -0.3 | 2.8 | -0.1 | -3.4 | -5.9 | 0.2%
O=C(c1cc2nc(-c3cccs3)cc(C(F)(F)Cl)n2n1)N1CCCc2ccccc21 | 43.1 | 8.9 | 1.0 | -4.6 | -6.0 | .
Cc1ccc(NC(=S)N/N=C2/CCCc3c(C)cc(C)cc32)cc1 | -1.0 | -3.2 | 1.2 | -2.1 | 7.8 | 18.0%
CC1c2cccn2CCN1S(=O)(=O)c1ccc(F)cc1 (configuration not stated) | . | -11.6 | -0.1 | -2.8 | -1.1 | 2.6%
CCCN(Cc1ccc(N(CC)CC)cc1)CC1CC1 | 7.9 | -15.3 | -0.5 | -2.5 | -21.5 | -2.7%[38.3 µM]
CC(C)CC(NC(=O)C(CC(C)C)NC(=O)OC(C)(C)C)C(N)=O (configuration not stated) | -5.3 | 8.0 | 0.4 | -3.2 | 3.4 | -2.5%

Taken from above:
For TRPML1 ag, COc1ccc(-n2ncc3c2CC(C)(C)CC3NC(=O)CCn2cncn2)cc1 (configuration not stated) is listed with -0.1
For D2 ag, CCCN(Cc1ccc(N(CC)CC)cc1)CC1CC1 is listed with -2.5
For CtBP-E1A blk, COc1cc(Cl)c(S(=O)(=O)n2cnc(C)c2)cc1Cl is listed with 9.7

Next section.
SMILES | CtBP-E1A blk | Six1-Eya2 blk | TRPML1 ag | D2 ag | D2 PAM | PINK1 expr mod
Cc1ccc(N=Cc2cc(C)n(C3CCCC3)c2C)cc1 | -4.9 | -2.9 | 1.0 | -0.3 | -12.3 | 6.1%[38.3 µM]
CC(C)NC(=O)COC(=O)c1cc(=O)[nH]c2ccccc12 | -4.8 | 1.9 | -0.1 | -2.0 | -9.6 | 3.1%[38.3 µM]
CCCc1nc2oc3cc(OC)ccc3c(=O)c2c(=O)n1CCc1ccccc1 | -3.3 | -14.1 | -0.7 | -7.6 | -3.6 | -1.2%
COc1ccc(CCNC(=O)Nc2ccc3c(c2)c(=O)n(C)n3C)cc1OC | -11.0 | -0.1 | -0.5 | ? | 12.4 | 1.5%
C(#Cc1ccccc1)CN1CCN(c2ccccn2)CC1 | 3.6&8.3 | -4.5&0.9 | 0.3&-0.7 | 5.4&6.6 | -10.1&-26.4 | 0.3%&-1.1%
CC(C)C(=O)NC(c1ccc([N+](=O)[O-])cc1)c1c(O)ccc2ccccc12 (configuration not stated) | -10.9 | -12.1 | 3.6 | -2.3 | 8.4 | ?
O=C(C(Sc1ccccc1)c1ccc(Br)cc1)N1CCOCC1 (configuration not stated) | . | -4.3 | -0.1 | -6.7 | 1.2 | 1.9%
COc1ccccc1N(CC(=O)Nc1ccccc1C(=O)NC(C)C)S(C)(=O)=O | 4.9 | -2.3 | -0.6 | -2.4 | -20.2 | 1.4%
COCCn1nnnc1C1(N(Cc2cc3cc(C)ccc3[nH]c2=O)CC2CCCO2)CCN(C)CC1 (configuration not stated) | 3.7 | 3.1 | 0.9 | 0.9 | 4.8 | -1.0%
Cn1c(=O)c2cc(NC(=S)NC3CCCCC3)ccc2n1C/C=C/c1ccccc1 | -14.0 | -16.3 | -1.0 | -1.0 | -1.3 | 0.4%
N#C/C(=C\c1coc2ccccc2c1=O)C(N)=S | -12.5 | -6.9 | -0.7 | -8.8 | -1.8 | -0.7%
CSc1ncccc1C(=O)OCC(=O)NCc1ccccc1 | 6.9 | 5.5 | 0.1 | -0.1 | -11.4 | -1.8%
